EPAC2 ant val = validation of human EPAC2 antagonists. Q8WZA2. EPAC2 Rap1B BODIPY-GDP exchange, fluorescence. Potency, µM (top dose mostly 112 µM), inactives show at the top dose activity, negative = inhibition, actives largely listed as inhibitors. actives 1.7% (n = 16,000); active means well fitted inhibition curve with a large enough effect; inconclusive means small, poorly fitted or top-dose-only effect; inactive means no such curve, though single readings can be large or run the other way;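 further: 100% = activation by cAMP agonist control; nearly all actives have a fitted effect of over 40% in size; the record reuses the description of the EPAC1 agonist screen; inactives centre near -10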
Target sequence (Q8WZA2 whole entry, looked up): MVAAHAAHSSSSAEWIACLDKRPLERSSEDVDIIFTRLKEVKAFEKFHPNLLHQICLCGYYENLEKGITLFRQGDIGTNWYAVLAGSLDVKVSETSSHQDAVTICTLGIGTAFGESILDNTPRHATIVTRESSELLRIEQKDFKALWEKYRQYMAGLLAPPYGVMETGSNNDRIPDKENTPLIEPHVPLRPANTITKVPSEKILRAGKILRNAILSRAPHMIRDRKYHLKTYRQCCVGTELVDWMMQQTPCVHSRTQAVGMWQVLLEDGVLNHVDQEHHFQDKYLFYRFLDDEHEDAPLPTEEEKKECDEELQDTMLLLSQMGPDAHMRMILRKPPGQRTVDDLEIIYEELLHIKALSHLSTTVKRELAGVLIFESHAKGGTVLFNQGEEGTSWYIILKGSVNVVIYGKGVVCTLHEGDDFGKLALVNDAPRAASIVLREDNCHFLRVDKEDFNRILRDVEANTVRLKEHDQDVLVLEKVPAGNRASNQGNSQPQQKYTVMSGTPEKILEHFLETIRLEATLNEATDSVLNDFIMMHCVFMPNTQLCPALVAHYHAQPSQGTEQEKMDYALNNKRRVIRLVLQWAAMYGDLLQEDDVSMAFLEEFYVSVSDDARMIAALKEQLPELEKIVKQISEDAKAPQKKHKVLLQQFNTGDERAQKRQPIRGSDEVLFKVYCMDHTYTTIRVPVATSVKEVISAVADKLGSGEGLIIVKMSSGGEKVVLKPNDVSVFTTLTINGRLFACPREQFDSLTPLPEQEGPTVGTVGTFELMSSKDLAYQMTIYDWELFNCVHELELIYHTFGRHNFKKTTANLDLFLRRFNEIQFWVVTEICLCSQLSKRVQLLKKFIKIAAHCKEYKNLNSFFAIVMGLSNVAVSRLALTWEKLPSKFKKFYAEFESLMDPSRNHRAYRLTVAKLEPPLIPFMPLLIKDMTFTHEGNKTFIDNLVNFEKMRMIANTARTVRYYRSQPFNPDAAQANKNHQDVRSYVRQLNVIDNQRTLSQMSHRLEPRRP
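Fluorescent exchange read-out: 100 nM EPAC2 with 250 nM RAP1B–BODIPY-GDP and 50 uM GDP; BODIPY-GDP release lowers fluorescence. Read at 480/540 nm every 5 min for 30 min at room temperature; normalized to 6.5 mM cAMP.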
* = called active by the depositor; ? = inconclusive; & = joins results of further samples; [ ] = another dose, or the depositor's remark. Potency means the concentration at half of the fitted maximal effect. This is a subset; count on the stated rates, not on these rows.

SMILES | EPAC2 ant val
Cn1c2c(c(=O)c3ccccc31)C[C@@H](O)C(C)(C)O2 | -3%
Cc1noc(C)c1-c1cc(Nc2ccc(F)cc2)ncn1 | ?
CN1CCCCCC1C(=O)NCCN1Cc2ccccc2OC(c2ccsc2)C1 (stereo unspecified) | 5%
Cc1ccc(-c2ncc(Cl)cc2-c2ccc(S(C)(=O)=O)cc2)cn1 | -8%
O=C1NCCN1c1ncc([N+](=O)[O-])s1 | -25%[56.6 µM]
COc1ccc(-c2coc3cc(O)ccc3c2=O)cc1 | -10%&-4%
CC(C)c1c(C(=O)NCC2(N3CCOCC3)CCCC2)cnn1-c1nccc(-c2cccs2)n1 | -18%
CS(=O)(=O)N1CCC[C@@]2(CCN(C(=O)Nc3cccc(C#N)c3)C2)C1 | -14%
COC(=O)CC1C(C)(C)C(OC(C)=O)[C@@]2(O)C=C3C4CC(=O)OC(c5ccoc5)[C@]4(C)CCC3[C@@]1(C)C2=O (stereo partly specified) | -5%
NCCCC[C@H](NC(=O)[C@@H]1CCCN1C(=O)[C@@H]1CSSC[C@H](NC(=O)CNC(=O)CNC(=O)CN)C(=O)N[C@@H](Cc2ccc(O)cc2)C(=O)N[C@@H](Cc2ccccc2)C(=O)N[C@@H](CCC(N)=O)C(=O)N[C@@H](CC(N)=O)C(=O)N1)C(=O)NCC(N)=O | -3%
Cc1ccc(C(=O)N(Cc2cc3ccc(F)cc3nc2N2CCC(O)CC2)CC2CCCO2)cc1 (stereo unspecified) | ?
COCCn1c(=O)c(-c2cccs2)nc2cnc(N3CCNCC3)nc21 | -14%
CCCNC(=O)[C@H]1O[C@@H]1C(=O)N[C@H](C(=O)N1CCC[C@H]1C(=O)OC)[C@@H](C)CC | -7%[151 µM]
C=C1CC[C@@H]2[C@](C)(CO)[C@H](O)CC[C@@]2(C)[C@@H]1C/C=C1/C(=O)OC[C@H]1O | -10%
NC(=O)C(=O)N/N=C/c1ccc([N+](=O)[O-])o1 | 2%
NC1=NC2C(N=C(Br)N2[C@@H]2O[C@H]3COP(=O)(O)O[C@@H]3[C@@H]2O)C(=O)N1 (stereo partly specified) | ?
COc1cc2ccc(=O)oc2cc1O | -16%&13%
O=C(C1CCCCC1)N1CCOc2ccc(CN3CCN(Cc4ccccn4)CC3)cc2C1 | -3%
CCC1C(=O)NCCN1Cc1ccc2c(c1)CN(Cc1ccc(OC)cc1OC)CCO2 (stereo unspecified) | -4%
CN1CCN(c2ncnc3ccc(-c4cccc(NS(C)(=O)=O)c4)cc23)CC1 | -3%
OCC(O)COc1cccc2ccccc12 (stereo unspecified) | -8%
Cc1noc(C)c1C(=O)N1CCC2(CC1)CN(c1ccccc1)C2 | -17%
Cc1ccnc2ccc3ccccc3c12 | -3%
CC(=O)OCC(=O)[C@@]1(O)CC[C@H]2[C@@H]3CCC4=CC(=O)CC[C@]4(C)C3=CC[C@@]21C | -3%
CC(N)=NCCC[C@H](N)C(=O)O | -18%
CC(C)C[C@@H](N)C(=O)O | 7%
O=c1[nH]c(=O)c2ccccc2o1 | 14%
C=C1CC[C@H](O)CC1=C/C=C1\CCC[C@]2(C)[C@@H]([C@H](C)CCCC(C)(C)O)CC[C@@H]12 | 2%
CCCCC1=NC2(CCCC2)C(=O)N1Cc1ccc(-c2ccccc2-c2nn[nH]n2)cc1 | -18%
CCCCCc1ccc(-c2cn(CCCOCc3ccccc3)nn2)cc1 | 2%
COC1=CC(=O)CC(C)C12Oc1c(Cl)c(OC)cc(OC)c1C2=O (stereo unspecified) | -13%
CCN(CC)C1CCN(C(=O)c2cnn(-c3nccc(-c4ccco4)n3)c2C(C)C)C1 (stereo unspecified) | -4%
c1cncc(CNc2ncnc3ccc(-c4ccoc4)cc23)c1 | -10%
S=C=Nc1ccc(N=C=S)cc1 | 32%
COc1ccccc1CNc1cc(-c2cccc(NS(C)(=O)=O)c2)ncn1 | -17%
COc1cc(=O)n2c(c1C(=O)NCc1ccc3c(c1)OCO3)CCN(C(=O)c1cccc(F)c1)CC2 | 12%
CC(=O)N1CCC2(CC1)CN(Cc1ccccc1)C2 | -27%
Cc1nc2cncnc2n(C2CC2)c1=O | 8%
COc1cccc(Nc2ncc3nc(C)c(=O)n(C[C@H]4CCCO4)c3n2)c1 | -11%
Nc1nc2n[nH]nc2c(=O)[nH]1 | ?
CC1=C(C(=O)O)N2C(=O)[C@@H](NC(=O)[C@H](N)C3=CCC=CC3)[C@H]2SC1 | -20%
CC(C)c1c(C(=O)NCC(C)(C)N2CCOCC2)cnn1-c1nccc(-c2cccs2)n1 | -19%
COCC1=C(C(=O)OC(C)OC(=O)OC(C)C)N2C(=O)[C@@H](NC(=O)/C(=N\OC)c3csc(N)n3)[C@H]2SC1 (stereo partly specified) | 43%&-1%[activator]
COc1ccc(/C=C/C(=O)c2ccc(OC)cc2OC)cc1 | 16µM*
O=C(c1ccncc1)N1CCC[C@@]2(CCN(c3ccccc3)C2)C1 | -15%
CCOC(=O)N1CCC(N2CCOc3ccc(CN4CCC(O)(c5cccnc5)CC4)cc3C2)CC1 | 79µM*
CC(C)(C)[C@@H]1CCC(=O)N(CC[C@H](Sc2ccc(Br)cc2)c2ccccc2)CC1 | -28%
CN1CCN(C(c2ccccc2)c2ccc(Cl)cc2)CC1 (stereo unspecified) | -27%[56.6 µM]
CCOC(=O)OC(C)OC(=O)C1N2C(=O)C(NC(=O)C(N)c3ccccc3)C2SC1(C)C (stereo unspecified) | -21%
CO[C@H]1C[C@H](O[C@H]2[C@H](C)[C@@H](O[C@@H]3O[C@H](C)C[C@H](N(C)C)[C@H]3O)[C@@H](C)C[C@]3(CO3)C(=O)[C@H](C)[C@@H](O)[C@@H](C)[C@@H](C)OC(=O)[C@@H]2C)O[C@@H](C)[C@@H]1O | -35%[56.6 µM]
CC(=O)N1CCC2(CC1)CN(C(c1ccccc1)c1ccccc1)C2 | ?
CN=C(N)NCCC[C@H](N)C(=O)O | -29%&16%&-3%
CCCCCCOC(=O)c1cccnc1 | 0%
C(=C\c1c[nH]c2ccccc12)/c1cc[n+](C2CCCCC2)cc1 | -2%
Cc1c(C(=O)NCC2COCCO2)cnn1-c1ncc2c(n1)-c1ccccc1CC2 (stereo unspecified) | -2%
CN(C)Cc1ccccc1-c1cncnc1NCc1cccnc1 | -13%
COc1cccc(N2[C@@H](CC(=O)O)c3ccc(/C=C/C(=O)O)cc3S2(=O)=O)c1 | 8%
c1cncc(CNc2ccnc(-c3ccc4c(c3)OCO4)n2)c1 | -17%
CCCN1CC(CSC)C[C@H]2c3cccc4[nH]cc(c34)C[C@H]21 (stereo partly specified) | -7%
CN[C@H]1CCc2cc(OC)c(OC)c(OC)c2-c2ccc(N[C@@H]3CCCCNC3=O)c(=O)cc21 | 10%

Other results.
SMILES | EPAC2 ant val
N#Cc1cccc(-c2nc3cnc(N4CCOCC4)nc3n(Cc3ccc(F)cc3)c2=O)c1 | 0%
COc1ccc(CNc2cc(-c3ccoc3)ncn2)c(OC)c1 | -45%
COCC(=O)N1CCC[C@@]2(CCN(C(=O)Nc3ccccc3)C2)C1 | -23%
COc1ccccc1CNc1ncncc1-c1ccc(N(C)C)cc1 | ?
NC(N)=NS(=O)(=O)c1ccc(N)cc1 | -10%[56.6 µM]
Cc1cc(C)c2c(C)ccnc2c1 | -4%
CC(=O)C[C@H]1c2ccccc2S(=O)(=O)N1C1CCCC1 | ?
COCCn1c(=O)c(CCc2ccccc2)nc2cnc(Oc3ccccc3)nc21 | -22%
NC(=O)[C@@H]1CCCN1C(=O)CCN1Cc2ccccc2OC(c2ccccc2F)C1 (stereo partly specified) | 21%
O=C(c1cnccn1)N1CCC2(CCN(Cc3cc(C(F)(F)F)cc(C(F)(F)F)c3)CC2)CC1 | -28%
CCn1c(-c2cccc(OC)c2)nc2cc(NC(C)=O)cc(C(=O)N3CCCC(C(C)=O)C3)c21 (stereo unspecified) | -7%
C=C1C[C@]23CC[C@H]4C(CO)(CO)C[C@@H](O)C[C@@]4(C)[C@@H]2CC[C@H]1C3 | -6%
O=C(CC1(c2cccc(F)c2)CC(=O)N(Cc2cccnc2)C1=O)N1CCCCCCC1 (stereo unspecified) | -1%
O=C1O/C(=C/Br)CCC1c1cccc2ccccc12 (stereo unspecified) | 4µM*
CCCCCCCCCCCCN1[C@@H](CC(=O)OC)c2cc(C(F)(F)F)ccc2S1(=O)=O | ?
O=c1[nH]c(=O)c2nc3ccccc3nc2[nH]1 | 26%&-3%
COCCn1c(=O)c(-c2ccc(Cl)cc2)nc2cnc(Oc3cccc(Cl)c3)nc21 | -12%
Cc1nc2cnc(Nc3ccccc3)nc2n(C)c1=O | -25%
CN(C)c1cccc(C(=O)NCC2Cc3cccc(-c4cncnc4)c3O2)c1 (stereo unspecified) | -16%
O=S(=O)(c1ccccc1)N1CCC2(CC1)CN(Cc1ccccc1)C2 | ?

16 compounds already listed, sorted by length of the SMILES, rising:
SMILES | EPAC2 ant val
Cc1cc(C)c2c(C)ccnc2c1 | -4%
NC(N)=NS(=O)(=O)c1ccc(N)cc1 | -10%[56.6 µM]
Cc1nc2cnc(Nc3ccccc3)nc2n(C)c1=O | -25%
O=C1O/C(=C/Br)CCC1c1cccc2ccccc12 (stereo unspecified) | 4µM*
COc1ccc(CNc2cc(-c3ccoc3)ncn2)c(OC)c1 | -45%
CC(=O)C[C@H]1c2ccccc2S(=O)(=O)N1C1CCCC1 | ?
O=S(=O)(c1ccccc1)N1CCC2(CC1)CN(Cc1ccccc1)C2 | ?
COCC(=O)N1CCC[C@@]2(CCN(C(=O)Nc3ccccc3)C2)C1 | -23%
COCCn1c(=O)c(CCc2ccccc2)nc2cnc(Oc3ccccc3)nc21 | -22%
NC(=O)[C@@H]1CCCN1C(=O)CCN1Cc2ccccc2OC(c2ccccc2F)C1 (stereo partly specified) | 21%
COCCn1c(=O)c(-c2ccc(Cl)cc2)nc2cnc(Oc3cccc(Cl)c3)nc21 | -12%
O=C(CC1(c2cccc(F)c2)CC(=O)N(Cc2cccnc2)C1=O)N1CCCCCCC1 (stereo unspecified) | -1%
CCCCCCCCCCCCN1[C@@H](CC(=O)OC)c2cc(C(F)(F)F)ccc2S1(=O)=O | ?
O=C(c1cnccn1)N1CCC2(CCN(Cc3cc(C(F)(F)F)cc(C(F)(F)F)c3)CC2)CC1 | -28%
CCn1c(-c2cccc(OC)c2)nc2cc(NC(C)=O)cc(C(=O)N3CCCC(C(C)=O)C3)c21 (stereo unspecified) | -7%
C=C1C[C@]23CC[C@H]4C(CO)(CO)C[C@@H](O)C[C@@]4(C)[C@@H]2CC[C@H]1C3 | -6%

Other structures follow:
SMILES | EPAC2 ant val
C=CC(C)=C[C@@]1(C)SC(=O)C(C)=C1O | -4%
Oc1ccc(-c2cnccn2)cc1CN1CCN(C2CCCCC2)CC1 | -4%
Fc1ccc([C@H]2CCNC[C@H]2COc2ccc3c(c2)OCO3)cc1 | -12%
COc1ccc(CN2CCOc3ccc(CN4CCC(O)(c5cccnc5)CC4)cc3C2)cc1OC | ?
C#C[C@]1(O)CC[C@H]2[C@H]3CCC4=Cc5oncc5C[C@]4(C)[C@@H]3CC[C@]21C | ?
CN(C)c1ccc(/C=C/N2C=CCc3c2ccc2ccccc32)cc1 | ?
CN(Cc1ccco1)c1ncncc1-c1ccccc1C(F)(F)F | -29%
C[C@H](CCC(=O)NCC(=O)O)C1CC[C@H]2C3CC[C@@H]4C[C@H](O)CC[C@]4(C)C3C[C@H](O)[C@]12C (stereo partly specified) | 10%
CN(C)Cc1ccccc1-c1ccc2ncnc(N3CCOCC3)c2c1 | -21%
O=C(Nc1ccccc1)N1CCCC2(CCN(C(=O)c3csnn3)CC2)C1 | -24%
COc1cc(/C=C/C(=O)CC(=O)/C=C/c2ccc(O)c(OC)c2)ccc1O | 141%&-7%&90%[activator]
CCC1CN(CCC(=O)NC2CCOC(C)(C)C2)Cc2cc(OC)ccc2O1 (stereo unspecified) | 9%
COc1ccccc1-c1ccnc(-n2ncc(C(=O)NCc3cccnc3)c2C)n1 | -15%
CC(NC(=O)C1CCOCC1)c1nnc2n1CCN(Cc1cc3c(cc1Cl)OCO3)CC2 (stereo unspecified) | ?
c1ncc(-c2ccc3c(c2)OCO3)c(NCCc2cnc[nH]2)n1 | -17%
CC1=C(C(=O)OC(C)C)C(c2cccc([N+](=O)[O-])c2)C(C(=O)OC2CN(C(c3ccccc3)c3ccccc3)C2)=C(N)N1 (stereo unspecified) | 1%
Cc1cc2c(cc1S(N)(=O)=O)S(=O)(=O)CCC2 | -13%[56.6 µM]
CC[C@H]1CN2CCc3cc(OC)c(OC)cc3[C@H]2C[C@@H]1C[C@@H]1NCCc2cc(OC)c(OC)cc21 | -3%
NC1CCN(c2cccc(Cl)n2)CC1 | 3%&13%&-17%
O=c1ccc2ccc(O)cc2o1 | -8%
Cc1c(-c2ccc(Cl)cc2)noc1C1CCN(CCc2ccccc2)CC1 | -12%&-24%
CO[C@H]1C[C@@H]2CC[C@@H](C)[C@@](O)(O2)C(=O)C(=O)N2CCCC[C@H]2C(=O)O[C@H](C(C)C[C@H]2CC[C@@H](O)[C@H](OC)C2)CC(=O)[C@H](C)/C=C(\C)[C@@H](O)[C@@H](OC)C(=O)[C@H](C)C[C@H](C)/C=C/C=C/C=C/1C (stereo partly specified) | ?
COC(=O)c1c(OC)cc2c(c1C)Oc1c(Cl)c(O)c(Cl)c(C)c1C(=O)O2 | 4.5µM*
CN(C)c1ncnc2ccc(-c3ccccc3C#N)cc12 | -1%
O=S1(=O)c2cccc3cccc(c23)N1CCCN1CCN(c2ccc(F)cc2)CC1 | -12%
CC[N+](CC)(CC(=O)Nc1c(C)cccc1C)Cc1ccccc1 | ?
CCC(C)(C)C(=O)O[C@H]1C[C@@H](C)C=C2C=C[C@H](C)[C@H](CC[C@@H]3C[C@@H](O)CC(=O)O3)[C@H]21 | -26%[56.6 µM]
